CSC inhib = blocks cancer stem cells; 300,000 compounds, 1.1% hits; inhibition, % at 7.5 µM; cancer stem cell-like cells viability, luminescence; AID 2717;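 active = mean at 75% or more and at least half the replicates too; inconclusive = mean and replicates disagree; tested in HMLE shEcad cells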;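 also: 0% = median of negative and 100% = median of positive control wells; the first replicate is given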
eIF4H FP inh = inhibitors of RNA binding by human eIF4H. Q15056. eIF4H fluorescence polarization binding assay. inhibition, % at 35 µM. 290,000 compounds, 0.94% hits;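 active = 50% or more with normal probe brightness, or confirmed in later tests; inconclusive = above 50% with abnormal brightness, or retests that disagree; inactive = below 50% or failed in later tests; about a fifth of its hits are not listed in these tables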;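 also: calls also rest on retests at 20 µM and on dose response follow-up; 0% = protein and probe with vehicle and 100% = probe without protein; strong numbers were not always called active; many hits fall short of the cut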
PABP FP inh = blocks human PABP binding to poly(A) RNA; fluorescence polarization; inhibition, % at 35 µM; 290,000 compounds, 1% hits;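 active = 50% or more with normal probe brightness, or confirmed in later tests; inconclusive = above 50% with abnormal brightness, or retests that disagree; inactive = below 50% or failed in later tests; about a fifth of its hits are not listed in these tables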;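 also: calls also rest on retests at 20 µM and on dose response follow-up; controls were probe without protein and protein plus probe with vehicle; some compounds called inactive have numbers as strong as hits; many hits fall short of the cut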
Target sequence (P11940 whole entry, looked up): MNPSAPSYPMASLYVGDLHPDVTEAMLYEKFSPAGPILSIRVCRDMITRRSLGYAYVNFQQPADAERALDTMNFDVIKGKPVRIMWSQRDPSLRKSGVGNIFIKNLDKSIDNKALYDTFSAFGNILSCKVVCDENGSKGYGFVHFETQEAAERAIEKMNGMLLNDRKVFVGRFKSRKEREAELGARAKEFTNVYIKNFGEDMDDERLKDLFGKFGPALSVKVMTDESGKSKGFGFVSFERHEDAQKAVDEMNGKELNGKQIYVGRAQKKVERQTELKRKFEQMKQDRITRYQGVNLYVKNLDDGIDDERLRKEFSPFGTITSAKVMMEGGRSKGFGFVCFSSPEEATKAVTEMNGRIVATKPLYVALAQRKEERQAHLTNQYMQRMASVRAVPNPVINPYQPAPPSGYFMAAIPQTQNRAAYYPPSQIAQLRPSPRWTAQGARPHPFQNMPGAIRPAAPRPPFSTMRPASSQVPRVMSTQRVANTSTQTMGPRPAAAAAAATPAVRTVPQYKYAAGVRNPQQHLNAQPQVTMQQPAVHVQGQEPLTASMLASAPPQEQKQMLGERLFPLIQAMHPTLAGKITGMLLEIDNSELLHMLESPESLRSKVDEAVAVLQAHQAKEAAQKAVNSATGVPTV
MT1-MMP act inh = blocks activation of human MT1-MMP; P50281; HT1080 RFP-PRO-GFP cells, GFP/RFP ratio fluorescence, overnight; percent of plate control window, DMSO zero; GFP/RFP ratio change, % at 20 µM; 360,000 compounds, 0.061% hits;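 active = GFP/RFP ratio change of at least 30% with cell ATP level not reduced by more than half and red fluorescence within 50% of control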; also: strong numbers were not always called active
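Assay system: HT1080 RFP-PRO-GFP cells | Dosing: 20 µM single dose, 1% DMSO | Incubation: Cells overnight before dosing, compound overnight, 37 °C, 5% CO2 | Evaluation: GFP/RFP fluorescence ratio | Control set: DMSO-only wells and HT1080 RFP-L50D-GFP cell wells as references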
HIV Env fusion = HIV envelope-mediated fusion inhibition. 360,000 compounds, 1.1% hits. HeLa-JRFL Env/CEM21 cell fusion, luciferase. inhibition, % at 12.3 µM. AID 651610;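 active = mean replicate inhibition score of at least 50 and every replicate individually at or above 50; inconclusive = only one of the two criteria met; inactive = mean below 50 and not all replicates reaching 50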;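 also: 0% = plate neutral controls and 100% = maraviroc near 300 nM; one replicate is shown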
Rce1 inh = yeast Ras-converting enzyme inhibition. Q03530. yeast membranes, quenched prenylated peptide cleavage fluorescence. calls only. 290,000 compounds, 0.27% hits;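 active = fall in fluorescence gain of 50% or more versus controls, with final raw signal at or below 3038400; inconclusive = same 50% fall but final raw signal above 3038400; inactive = fall in fluorescence gain under 50%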;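 also: plate controls were neutral control wells for no effect and wells lacking membranes for full effect; tested at 10 µM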
Yeast UUG start = yeast start codon fidelity modulation | S. cerevisiae UUG-firefly luciferase reporter, luminescence/redox ratio | activity score, % at 18.7 µM | 350,000 compounds, 0.13% hits | AID 602363;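 active = replicate mean at a twofold rise or more, about +100% in these data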;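 also: firefly luciferase made from a UUG start codon reports start codon fidelity; reporter light over untreated wells divided by growth signal over untreated wells; some hits fall short of that in this replicate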
eIF4H FP inh retest = also measured in eIF4H FP inh; calls as there; inhibition, %; compound at 20 µM; confirmation average;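 mean of two retest wells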
PABP FP inh retest = recorded beside PABP FP inh, whose call it bears; inhibition, %; compound at 20 µM; confirmation repeats;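 mean of two retest wells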
MT1-MMP act inh RFP = recorded beside MT1-MMP act inh, whose call it bears; RFP signal change, %; measured here: RFP expression control read;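 0 = vehicle wells; hits needed this value within 50% of zero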
* marks the source's active call; other numbers are inactive results; i = inactive; ? = inconclusive; nt = not tested or not shown.

SMILES	CSC inhib	eIF4H FP inh	PABP FP inh	MT1-MMP act inh	MT1-MMP act inh RFP	HIV Env fusion	Rce1 inh	Yeast UUG start	others
O=[N+]([O-])c1ccc(C2C3C(c4ccccc4)=NC4(CCCC4)N32)cc1 (stereo not given)	12	0	-11	1	1	-2	nt	-18
COc1ccc(C(C)=O)cc1CN1CC=C(c2ccccc2)CC1	2	14	42	-1	0	nt	i	-19
O=C1NC(=S)NC(=O)C1=Cc1ccc2c(c1)CCN2CCCCl	-5	68*	40*	-2	3	nt	i	-15	eIF4H FP inh retest=82*;PABP FP inh retest=69*
OC(c1cccc(Cl)c1)(c1cccc(Cl)c1)C1CN2CCC1CC2 (stereo not given)	-19	-4	3	-27	-8	-1	i	nt
CN1CCN(c2ccc([N+](=O)[O-])c3cccnc23)CC1	nt	-4	1	1	4	nt	i	-3
CCOP(=O)(C#CC(C)(C)C)C(C)(O)c1ccccc1 (stereo not given)	-17	3	-3	5	6	nt	nt	-6
CC(C)C1(C)N=C(c2nc3ccccc3cc2C(=O)O)NC1=O (stereo not given)	1	4	8	3	5	nt	i	-31
CN(C)N=O	-2	nt	nt	1	2	nt	nt	-18
Cc1ccc(-n2cc(CNC(C)Cc3cnccn3)c(-c3cccc(C)c3)n2)cc1 (stereo not given)	10	-8	9	-2	-4	47	i	nt
CCN(CC)C(=O)c1ccc(NC(=O)c2cccc(C(F)(F)F)c2)cc1	33	-8	-4	2	-5	2	i	3
Fc1cccc(C2NCCc3[nH]cnc32)c1 (stereo not given)	nt	5	17	1	4	8	i	nt
COc1ccc(CN2C(=O)NC(=O)/C(=C/c3ccoc3)C2=O)cc1	2	?	?	-93	16	-5	i	1
CCCCn1c(C)c(C(=O)O)c2cc(OC)ccc21	3	1	6	-10	-5	nt	i	0
Cc1ccc(N2C(=O)NC(=O)/C(=C\c3cn(CC(=O)O)c4ccccc34)C2=O)cc1	6	?	?	-51	19	-37	i	-3
COC(=O)C1=C(c2ccc3ccccc3c2)C[C@@H]2CC[C@H]1N2C(=O)NC1CCCCC1	2	nt	nt	0	-4	nt	nt	0
COc1ccccc1CN1CCN(C(=O)Cc2ccccc2)CC1	-9	-1	19	5	5	nt	i	10
N#CC1=C(N)Oc2c(c(=O)oc3ccccc23)C1c1ccccc1OC(=O)c1cccs1 (stereo not given)	23	-11	-4	-10	-8	16	i	nt
CCCCC12CNCC(C)(CNC1)C2=O	-3	0	0	1	2	-32	i	1
Cc1cc(C=O)c(C)n1C1CCCCC1	-9	-4	2	1	5	nt	i	nt
Cc1nc2ccccc2c(=O)n1-c1ccncc1	-9	-7	5	-9	-2	-9	i	-24

The closing 2 compounds of the section above open the next one.
SMILES	CSC inhib	eIF4H FP inh	PABP FP inh	MT1-MMP act inh	MT1-MMP act inh RFP	HIV Env fusion	Rce1 inh	Yeast UUG start	others
Cc1cc(C=O)c(C)n1C1CCCCC1	-9	-4	2	1	5	nt	i	nt
Cc1nc2ccccc2c(=O)n1-c1ccncc1	-9	-7	5	-9	-2	-9	i	-24
Cc1ccc(C(=O)C2(C)N(O)C(C)C(c3cccs3)=[N+]2[O-])cc1 (stereo not given)	0	-9	-6	6	1	2	i	nt
OCC[n+]1c2ccccc2nc2ccc(N3CCOCC3)cc21	18	11	7	11	6	34	i	3
CN(C)C(=O)On1c(-c2ccccc2)nc2ccc(Cl)cc21	-21	10	6	4	-1	nt	i	nt
CC(=O)c1c(O)n(C)c(=S)n(-c2ccccc2)c1=O	0	-2	-2	-2	1	-22	i	-17
Cc1c(C(c2ccc(Cl)cc2Cl)c2c(O)c3ccccc3oc2=O)c(=O)n(-c2ccccc2)n1C (stereo not given)	4	4	2	1	3	4	i	-12
COC(=O)C1=C(c2ccc(Cl)c(C(F)(F)F)c2)C[C@@H]2CC[C@H]1N2C(=O)N1CCCC1	6	nt	nt	1	-10	41	nt	9
CN1CCN(C(=O)O[C@H]2c3nccnc3C(=O)N2c2ccc(Cl)cn2)CC1	4	-7	-10	-2	3	1	i	-18
Cc1ccc2c(c1)c(=O)c1c3n2CCN(CC#N)C3CC1 (stereo not given)	1	12	6	3	2	-11	i	nt
COC(=O)C1=C(c2ccccc2)C[C@@H]2CC[C@H]1N2C(=O)NCCNC(C)=O	6	nt	nt	2	6	3	i	-9
O=C(Cn1ncc2c3ccccc3n(Cc3ccc(F)cc3)c2c1=O)N1CCC2(CC1)OCCO2	-1	4	-11	-6	-14	nt	i	7
Cn1cccc1/C=C1\C(=O)NC(=O)N(Cc2ccccc2Cl)C1=O	nt	63	-9	0	4	-42	nt	nt	eIF4H FP inh retest=0;PABP FP inh retest=-10
C#CCN1C(=O)C2(C(C#N)=C(N)OC(C)=C2C(=O)OCc2ccccc2)c2ccccc21 (stereo not given)	6	2	-3	-1	-1	-19	i	-4
Cc1oc(C(=O)Nc2ccc(O)cc2)cc1COc1ccccc1	-3	-2	1	3	-3	6	nt	-13
O=C(OCCN1CCOCC1)C1(c2ccccc2)CCCC1	nt	0	4	1	-1	-7	i	nt
O=C(O)C1(c2ccc(Cl)cc2)CCC1	-12	-1	-4	-4	-1	nt	nt	-10
C=CCn1c(O)c(N=Nc2c(C)n(C)n(-c3ccccc3)c2=O)c(=O)[nH]c1=S	3	-1	2	4	4	10	i	0
COc1ccccc1OCC(=O)N1CCCC(N(C)Cc2ccccc2)C1 (stereo not given)	5	4	4	-2	-2	13	i	-11
O=C(COc1ccc2ccccc2c1)N1CCN(Cc2c[nH]c3ccccc23)CC1	11	2	-8	0	-9	nt	i	-8
COCCn1cc(C(=O)N2CCC3(CC2)OCCO3)c2c3ccccc3n(C)c2c1=O	-12	-5	-5	4	11	14	nt	-2
O=C(NC(=S)N1C[C@H]2C[C@H](C1)c1cccc(=O)n1C2)c1ccc(F)cc1	0	-6	2	1	5	nt	i	-24
O=C(CCN1CCCCC1)NCC(=O)Nc1ccc(Br)cc1C(=O)c1ccccc1	nt	-5	4	0	-6	-31	i	nt
Cc1cccc(N2C(=O)NC(=O)/C(=C\c3ccc(N4CCOCC4)cc3)C2=O)c1	-16	24	-11	-2	11	-9	i	nt
C=CCc1cc(C=C2C(=O)NC(=O)NC2=O)cc(OC)c1OCc1ccc(C(=O)O)cc1	-4	4	-7	-2	-1	nt	i	nt
CN1CCC2(CC1)N=C(c1ccc(F)cc1)C(=S)N2	1	-10	-7	1	5	14	i	nt
CCCCCn1c(=O)c(C(=O)NCc2ccncc2)c(O)c2ccccc21	23	10	-5	-28	-22	nt	i	-22
COc1ccc(N2CCN(C(CNC(=O)Oc3ccccc3)c3cccnc3)CC2)cc1 (stereo not given)	-5	-12	-11	5	1	-36	i	nt
CCCCCCN=C(CC)c1c(O)n(CCCC)c(=O)[nH]c1=O	-13	-6	-1	-5	-8	33	i	-8
CCn1cc(C(=O)NCc2ccccc2)c2ccccc21	-14	-7	-8	0	3	5	i	nt
COC(=O)C1=C(c2ccc(F)cc2F)C[C@@H]2CC[C@H]1N2C(=O)NCCOc1ccccc1	2	nt	nt	5	-3	-60	nt	-10
CCSC1=NN1c1cc(C)nc(N)n1	-5	-7	2	6	1	9	i	19
CCC(=NCc1ccco1)c1c(O)n(Cc2ccccc2)c(=O)[nH]c1=O	-13	67*	39	-16	-4	-31	i	-16	eIF4H FP inh retest=74*;PABP FP inh retest=42
O=C(CF)NC(NC(=S)Nc1cccc([N+](=O)[O-])c1)C(Cl)(Cl)Cl (stereo not given)	-4	4	-14	-1	-3	8	i	nt
Cc1ccc2c(c1)CC1(CN2C)C(=O)NC(=O)N(c2ccccc2C)C1=O (stereo not given)	39	-3	-5	-4	0	-27	nt	-12
c1ccc(-c2ccc3c(c2)CNCc2cnnn2-3)cc1	nt	nt	nt	5	5	-41	nt	-16
Cc1cc(S(N)(=O)=O)ccc1N=Cc1c(O)n(-c2ccccc2)c(=O)[nH]c1=O	-2	?	?	-4	4	11	i	nt
CCCCC(=O)N/N=C/c1c(O)n(CCCC)c(=S)[nH]c1=O	2	9	-1	5	4	3	nt	-22
CC1(O)C[C@]2(C)N(O)C3CCCC[C@@H]3N2O1 (stereo not given in full)	-9	-6	6	-1	-2	nt	i	-19
CCCn1ncc(C(=O)O)c1C	9	6	5	0	1	nt	i	-3
CN(C)C(=O)CSc1nnc([C@@H](N)Cc2ccccc2)o1	-7	-15	-6	3	-1	-7	i	-10
CCCCC(=O)N/N=C/c1c(O)n(CCc2ccc(OC)c(OC)c2)c(=O)[nH]c1=O	7	17	1	-5	-4	-31	i	nt
CP(=O)(Nc1ccc(Cl)cc1)c1nc2c(s1)CCCC2 (stereo not given)	5	-3	-5	3	-13	6	i	nt
Cc1ccc(C)c(OCC(=O)N2CCCN(C)CC2)c1	-5	-10	45	6	6	0	i	nt
COC(=O)C1=C(c2ccc(F)cc2OCc2ccccc2)C[C@@H]2CC[C@H]1N2C(=O)N1CCCCC1	8	nt	nt	-3	-7	-8	nt	-9
O=c1c2ccccc2[nH]c(=S)n1-c1cccc(C(F)(F)F)c1	nt	nt	nt	3	-3	15	nt	-4
C=CCn1c(O)c(C=NCCN2CCOCC2)c(=O)[nH]c1=S	-25	-4	5	1	-3	1	i	-4
CN1CCN2c3ccccc3CC3(C(=O)N(C)C(=O)N(C)C3=O)C2C1 (stereo not given)	-5	-9	-5	0	7	-1	i	nt
Cc1cc(C)c(-n2c(O)c(/C=N/NC(=O)c3ccncc3)c(=O)[nH]c2=O)c(C)c1	-12	57*	39*	-22	7	-10	i	-35	eIF4H FP inh retest=91*;PABP FP inh retest=66*
CCCCN1C(=N)C(CC)(CC)C(=O)NC1=O	-14	-12	1	1	0	19	i	nt
COC(=O)C1=C(c2cccc(OC)c2OC)C[C@@H]2CC[C@H]1N2C(=O)N1CCCC1	-3	nt	nt	-2	1	0	i	29
Cc1cc(OC(C)C(=O)NCc2ccncc2)c2c3c(c(=O)oc2c1)CCC3 (stereo not given)	-6	-7	-4	6	0	-5	i	-5
O=c1[nH]c(=S)n(CCC2=CCCCC2)c(O)c1/C=N/Nc1ccccc1	33	8	-7	43	52	-5	i	nt
Cc1cccc(N2C(=O)/C(=C/c3ccc(N4CCN(C)CC4)o3)C(=O)NC2=S)c1C	-13	33	5	-14	2	-15	i	nt
Cc1cccc(OP(=O)(Oc2cccc(C)c2)OC(c2ccccc2)C(F)(F)F)c1 (stereo not given)	32	-8	2	-10	-10	19	i	nt
Cc1ccc(OP(=O)(O)Oc2ccc(C)cc2)cc1	2	nt	nt	4	2	-14	i	-11
CS(=O)(=O)c1ccc(C2=C(CNC(=O)c3ccncc3)[C@H]3CC[C@@H](C2)N3CCOc2ccccc2)cc1	nt	nt	nt	-2	4	-189	nt	0
CC1(C(O)(C#CCN2CCCCC2)c2ccccc2)CCCC1 (stereo not given)	2	-11	-36	-8	-3	3	i	nt
O=C(c1cccnc1)c1cc2ccccc2[nH]1	-2	-2	0	-2	6	-15	i	-13
O=C1NC(=O)N(CCNc2ncc(C(F)(F)F)cc2Cl)C(=O)C1Cc1ccc(Cl)cc1 (stereo not given)	-12	-1	7	0	0	22	nt	nt
CCOc1ccccc1CNCCc1ccc2c(c1)OCO2	-6	0	16	1	3	-7	i	-16

Not all compounds are listed; the hit share may differ from the screen's.
